BJeLR viability = BJeLR cell viability loss. BJeLR (HRASV12) viability, CellTiter-Glo ATP luminescence, 48 h; reference of the scale not given here. inhibition, % (test concentration not listed). 0.17% of 300,000 active. AID 1554;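 active = replicate mean above 50%; inconclusive = above 50% but judged a plate artefact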;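 also: 50 nL library stock added to about 25 µL; numbers are from one replicate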
Sa RN4220 lethal = S. aureus RN4220 growth inhibition; OD600, 16 h; inhibition, % (concentration not given with the values); 0.33% of 330,000 active; AID 1259311;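 active = z-score of -3 or lower and OD600 up to 0.18 on both plates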;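 also: plate controls were untreated cells for no effect and reference antibiotic for full effect; stock transfer was 100 nL into about 80 µL; one replicate is shown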
PrP 5UTR inh = inhibition of PrP 5' UTR reporter expression; inhibition, % (concentration not given with the values); cell-based PrP 5' UTR mRNA reporter, plate reader; 0.35% of 340,000 active;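 active = every replicate at 50% or more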;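 also: 0 = median of the neutral control wells; tested in H4 reporter cells; numbers are from one replicate; inactives centre near -14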
Mtb hypoxia inh = inhibitors of hypoxia-regulated fluorescent reporter in Mycobacterium tuberculosis; 0.1% of 300,000 active; M. tuberculosis hypoxia-regulated fluorescent reporter, fluorescence; fluorescence inhibition, % (test concentration not listed);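 active = 35 to 45% if threefold the growth effect, above 45% if 1.5-fold the growth effect; inactive = the rest, general growth blockers included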;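 also: wells of about 50 µL received 100 nL stock; 0% = vehicle wells and 100% = reference inhibitor wells; whole bacteria with a GFP reporter of the hypoxia response; strong numbers were not always called active; many hits fall short of the cut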
Autofluor counter = counter-screen for toxin protease inhibitors: compound fluorescence; 3.1% of 360,000 active; fluorescence intensity (no concentration beside the values); AID 624483; compound autofluorescence counterscreen, microsphere flow cytometry; hits give high values;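 active = at least 3 SD above the mean of all compounds, about 16000 in these data; inconclusive = too few beads counted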;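 also: 100 nL of 1 mM stock went into each well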
ugtP null kill = kills S. aureus RN4220 lacking UgtP. growth inhibition, % (no concentration beside the values). S. aureus RN4220 ugtP deletion, OD600 growth, 16 h; some inactives read as strong as hits. 0.54% of 330,000 active. AID 1259309;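 active = z-score under -3 and OD600 up to 0.15 on both plates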;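 also: plate controls were untreated wells for no effect and antibiotic for full effect; wells of about 80 µL received 100 nL stock; the first replicate is given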
Mtb hypoxia inh growth = also measured in Mtb hypoxia inh; calls as there; growth inhibition, %; measured here: M. tuberculosis growth (absorbance);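 0% = vehicle and 100% = reference antibiotic; read after six days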
Starred values were filed as active, the others as inactive; ? = inconclusive; / = not tested or not shown.

Order of values – BJeLR viability, Sa RN4220 lethal, PrP 5UTR inh, Mtb hypoxia inh, Mtb hypoxia inh growth, Autofluor counter, ugtP null kill
- CSc1ccc(S(=O)(=O)NCC(=O)OCCOc2ccccc2)cc1[N+](=O)[O-]
→ -11, 8.1, -18, 10, 5, 5708, 2
- O=C(NC(=S)Nc1ccccc1C(F)(F)F)c1ccccc1F
→ 2, /, -24, /, /, 4727, /
- CCNC(=O)COc1ccc(/C=C2\COc3ccccc3C2=O)cc1OC
→ 3, 7.5, 12, 14, 3, 3507, 0
- CCOC(=O)C1CCN(C(=O)Cc2ccc(C)cc2)CC1
→ 2, -2.4, -12, /, /, 3733, 9
- CC(C)CN(C(=O)COC(=O)CN1C(=O)c2ccccc2C1=O)c1c(N)n(Cc2ccccc2)c(=O)[nH]c1=O
→ 4, 1.1, -15, 7, 11, 5423, 5
- CCC(C)NC(=O)C1CCN(c2nc(OC)nc(OC)n2)CC1 (stereo not drawn)
→ -5, 5.7, -21, 7, 2, 3313, 14
- CNS(=O)(=O)c1cc2c3c(cccc3c1)C(=O)NC2=O
→ 2, -0.2, -13, 3, 3, 3267, 9
- Cc1cc(Br)cc(C=Nc2ccc(N3CCOCC3)cc2)c1O
→ 4, -8.4, -28, 16, 5, 5926, 24
- Cn1c(SCC(=O)Nc2ccc3[nH]c(=O)[nH]c3c2)nnc1-c1ccc(F)cc1
→ 12, 3.7, -7, 0, 4, ?, 6
- CCOc1ccc(C(=O)NC(=S)NCc2cccnc2)cc1
→ -6, 2.8, -22, 0, 4, 2156, 11
- O=C(COC(=O)c1ccc(Br)o1)Nc1ncc([N+](=O)[O-])s1
→ /, 10, -37, 1, 7, 8587, 7
- O=c1cc(O)c(-c2cccc(C(F)(F)F)c2)c(Cl)[nH]1
→ 1, 3.5, -14, -4, -2, 2517, -1
- CCOc1ccc(N2C(=O)C(CC(=O)Nc3ccc(F)cc3)N(Cc3ccccn3)C2=S)cc1 (stereo not drawn)
→ 5, 2.8, -3, 1, 5, /, 3
- COc1ccc(CC(=O)NC2CCSc3ccccc32)c(OC)c1 (stereo not drawn)
→ -19, -0.5, -23, 9, 7, 5445, 4
- CC1CCCCC1NCc1cccc([N+](=O)[O-])c1 (stereo not drawn)
→ 2, 2.0, -23, -3, 5, 2150, 4
- COc1ccc(C(=O)Nc2cc(C(F)(F)F)ccc2Cl)cc1OC
→ -4, 4.2, -26, 6, 2, 11914, 7
- Cc1cc2c(ncn2C)c(NS(=O)(=O)c2ccccc2Cl)c1C
→ -8, 2.6, -26, 10, -5, 4465, 0
- N#Cc1nc(-c2ccc(OCc3ccccc3)cc2)oc1NCc1cccnc1
→ -5, -12, -1, 4, 4, 2813, 2
- COc1ccc(CCC(=O)NNC(=O)Nc2cc(Cl)ccc2C)cc1
→ 8, 4.3, 4, 14, 1, 4585, 5
- COC(=O)c1ccc(-c2ccco2)n1Cc1ccccc1Cl
→ 7, -1.4, -26, 13, 18, 10056, 85*
- S=c1[nH]nc(C2CCCCC2)n1/N=C/c1c(Cl)cccc1Cl
→ -4, /, -32, /, /, 3128, /
- Cc1ccc(C)c(NC(=O)c2oc(=O)c3ccccc3c2-c2ccccc2)c1
→ 0, 4.5, -10, 0, 0, 2472, 11
- CN(Cc1ccc(Cl)c(Cl)c1)C(=O)c1cccc(S(=O)(=O)N2CCN(Cc3ccccc3)CC2)c1
→ /, 4.4, -18, 12, -3, 3478, -9
- O=C(Nc1cccc(C(=O)O)c1)/C(=C\c1ccccc1)NC(=O)c1ccccc1
→ -2, /, -14, /, /, 4958, /
- CCOC(=O)c1cc(C)n(-c2ccc(OC)c(OC)c2)c1C
→ 7, 2.4, -24, /, /, 3953, 8
- COc1cccc(N2CC(O)Cn3c2nc2c3c(=O)[nH]c(=O)n2C)c1 (stereo not drawn)
→ -10, 5.1, -1, 10, 6, 3007, 3
- O=S(=O)(c1ccc(Cl)cc1)c1nc(-c2ccco2)oc1N1CCOCC1
→ 0, 3.7, -1, 14, 5, /, 8
- COCCNC(=O)C(=O)NNC(=O)CCc1ccccc1
→ 1, 3.5, -16, 0, -1, 4437, 5
- CCNc1c(NS(=O)(=O)c2ccc([N+](=O)[O-])cc2)c(=O)oc2ccccc12
→ 5, 8.9, -65, 2, 2, 3038, 4
- CCN=C1SC(CC(=O)Nc2ccccc2OCC)C(=O)N1CC (stereo not drawn)
→ -4, 9.4, -21, 2, 2, 7960, 10
- c1ccc2nc3c(nc2c1)c1ccccc1n3CCN1CCOCC1
→ -3, 0.3, -60, 2, 12, 10550, 10
- COc1ccccc1C(CNC(=O)C1CC(=O)N(Cc2ccc(C)cc2)C1)N1CCCC1 (stereo not drawn)
→ -9, 2.8, -16, 0, -5, 7807, 7
- O=c1oc2ccc(NS(=O)(=O)c3cccc4cccnc34)cc2s1
→ 0, -7.6, -25, 1, 1, 3730, 3
- COc1ccc2oc(C(=O)Nc3nc4ccccc4[nH]3)c(C)c2c1
→ -6, 5.9, -26, 1, 4, 3526, -1
- N#Cc1ccc(C(=O)Nc2ccc(S(=O)(=O)NC3=NCCCCC3)cc2)cc1
→ 9, 0.1, -12, 8, 2, 3252, -3
- COc1ccc(-c2nc3ccccc3c(=O)n2CCOc2cccc(C)c2C)cc1
→ -1, 3.4, -15, -22, 0, 1950, 9
- Cc1ccc(N2C(S)=C(C#N)C(=O)NC2c2ccco2)cc1 (stereo not drawn)
→ -4, /, -15, /, /, 4504, /
- C=CCn1c(COc2ccccc2-c2ccccc2)nnc1SCC(=O)NC(=O)NCc1ccco1
→ 4, -0.1, -22, 11, 6, 21241*, -18
- CC1CCC(NC(=O)CCS(=O)(=O)c2ccc3c(c2)NC(=O)CS3)CC1 (stereo not drawn)
→ 3, 3.3, 0, 12, 3, 2720, 5
- CCC1C(=O)NCCN1C(=O)CCc1nnc(CCc2ccc(OC)cc2)o1 (stereo not drawn)
→ 3, 1.7, -20, 11, 1, 4917, 1
- O=C(NCCS(=O)(=O)NCc1ccccc1)c1ccccc1
→ 2, -3.1, -12, -11, 2, 5107, 0
- Cc1ccc(N2CN=C(c3ccccc3)NC2=S)cc1
→ 0, 0.7, -54, 10, 9, 6108, 49
- COc1ccc(-c2nc(CS(=O)CC(=O)NCCCN3CC(C)CC(C)C3)c(C)o2)cc1OC (stereo not drawn)
→ -9, 1.9, -18, -8, 12, 11746, -1
- C=C(C)c1cccc(C(C)(C)NC(=O)NCc2ccc(OC)c(OC)c2)c1
→ 13, -2.7, -8, 10, 6, 23352*, -4
- COCCN(C(=O)COC(=O)C(C)(C)Oc1ccc(Cl)cc1)c1c(N)n(Cc2ccccc2)c(=O)[nH]c1=O
→ /, -5.1, -11, 8, 8, 3896, 24
- CCCS(=O)(=O)N1CCN=C1SCc1cccc(F)c1
→ -5, 2.7, -12, 6, -3, 5124, 4
- N#CCCCC#Cc1ccc2c(c1)COc1c3ccccc3nn1-2
→ 26, 3.7, 45, 9, -9, 3524, 15
- COc1ccc(OC)c(N/C(C)=C/C(=O)c2ccc(C)o2)c1
→ 3, 3.2, -26, 5, 8, 20443*, 3
- O=C(ON=C1CCSc2ccccc21)c1ccccc1
→ /, 6.6, /, 2, 2, /, 8
- COC1(OC)N=C(N)C2(C#N)C(c3ccccc3)NC(C)=CC12C#N (stereo not drawn)
→ -7, -2.7, -13, /, /, 2420, -11

(list continues)
Order of values – BJeLR viability, Sa RN4220 lethal, PrP 5UTR inh, Mtb hypoxia inh, Mtb hypoxia inh growth, Autofluor counter, ugtP null kill
- CC1CC(C)CN(C(=O)c2ccc3c(c2)N(Cc2ccccc2)CCS3)C1 (stereo not drawn)
→ -11, -8.3, -5, /, /, 4447, 12
- CN=C(Nc1cc(Cl)ccc1Cl)SC1CC(=O)N(c2ccc(C(=O)OC)cc2)C1=O (stereo not drawn)
→ 1, 16, -9, /, /, 2288, 44
- Cc1cc(C)n(C(C)n2nc(C)cc2C)n1
→ 7, 5.9, -18, -1, 2, 10530, -1
- CC1CCN(c2nc3ccccc3n2CC(=O)c2ccccc2)CC1
→ 10, 2.4, -20, -2, 0, 4856, 12
- CC(C)CC(=O)Nc1ccc2ccccc2c1
→ -1, 15, -32, 10, 13, 3838, 2
- Cc1ccc(C(=O)NCCc2nnc3ccc(SCC(=O)N4CCCCC4)nn23)cc1
→ 2, -1.1, -12, 6, 7, 4679, 2
- CC1=CC(C)(C)NC(=S)N1NC(=O)c1ccccc1Cl
→ 0, 5.6, -19, 6, 4, 5488, -2
- COc1ccc(OCCCC(=O)N(C)CC(=O)Nc2ccccc2Cl)cc1
→ -6, 2.2, -7, -1, 12, 6232, 1
- Cc1c(C(=O)NCCSCc2cccc(C(F)(F)F)c2)cnn1-c1ccc(Cl)cc1
→ 5, -2.8, -6, 10, -3, 3815, -9
- COc1ccc(C(=O)Nc2ccc(N3CCN(C(=O)c4ccccc4)CC3)cc2)cc1[N+](=O)[O-]
→ 1, 1.8, -3, -5, -3, 3109, 0

Three records picked at random from those above:
Order of values – BJeLR viability, Sa RN4220 lethal, PrP 5UTR inh, Mtb hypoxia inh, Mtb hypoxia inh growth, Autofluor counter, ugtP null kill
- Cc1c(C(=O)NCCSCc2cccc(C(F)(F)F)c2)cnn1-c1ccc(Cl)cc1
→ 5, -2.8, -6, 10, -3, 3815, -9
- CC(C)CC(=O)Nc1ccc2ccccc2c1
→ -1, 15, -32, 10, 13, 3838, 2
- Cc1ccc(C(=O)NCCc2nnc3ccc(SCC(=O)N4CCCCC4)nn23)cc1
→ 2, -1.1, -12, 6, 7, 4679, 2

(cont.)
Order of values – BJeLR viability, Sa RN4220 lethal, PrP 5UTR inh, Mtb hypoxia inh, Mtb hypoxia inh growth, Autofluor counter, ugtP null kill
- CCCn1nc(NC(=O)C(C)(C)C)c2cc3cc(OC)ccc3nc21
→ 0, 3.8, -14, -7, 5, 4005, 17
- CC(NC(=O)CN1CCCC1)c1ccccc1 (stereo not drawn)
→ 11, 4.7, -10, 10, 0, /, 1
- COC1(OC)C(=NO)C(=NO)CCC1O (stereo not drawn)
→ /, 2.4, /, 8, 6, /, 8
- Cc1cc(C)nc(NC(=O)CCN2C(=O)c3ccccc3S2(=O)=O)n1
→ 6, 6.3, -15, 2, 3, 6231, 11
- Cc1cc(Nc2ccccc2)nn1C(=O)c1ccc(Cl)cc1
→ 10, -4.1, -5, -1, -8, 2550, 62
- O=C(Nc1ccc(Cl)cn1)Nc1ccc(Cl)cn1
→ -2, 2.1, -57, 9, -5, 2139, -3

Structural class: those above containing an NH in an aromatic ring.
Order of values – BJeLR viability, Sa RN4220 lethal, PrP 5UTR inh, Mtb hypoxia inh, Mtb hypoxia inh growth, Autofluor counter, ugtP null kill
- CC(C)CN(C(=O)COC(=O)CN1C(=O)c2ccccc2C1=O)c1c(N)n(Cc2ccccc2)c(=O)[nH]c1=O
→ 4, 1.1, -15, 7, 11, 5423, 5
- Cn1c(SCC(=O)Nc2ccc3[nH]c(=O)[nH]c3c2)nnc1-c1ccc(F)cc1
→ 12, 3.7, -7, 0, 4, ?, 6
- O=c1cc(O)c(-c2cccc(C(F)(F)F)c2)c(Cl)[nH]1
→ 1, 3.5, -14, -4, -2, 2517, -1
- S=c1[nH]nc(C2CCCCC2)n1/N=C/c1c(Cl)cccc1Cl
→ -4, /, -32, /, /, 3128, /
- COc1cccc(N2CC(O)Cn3c2nc2c3c(=O)[nH]c(=O)n2C)c1 (stereo not drawn)
→ -10, 5.1, -1, 10, 6, 3007, 3
- COc1ccc2oc(C(=O)Nc3nc4ccccc4[nH]3)c(C)c2c1
→ -6, 5.9, -26, 1, 4, 3526, -1
- COCCN(C(=O)COC(=O)C(C)(C)Oc1ccc(Cl)cc1)c1c(N)n(Cc2ccccc2)c(=O)[nH]c1=O
→ /, -5.1, -11, 8, 8, 3896, 24
